Screens (PubChem)
Rce1 inhib: yeast Ras-converting enzyme inhibition. Q03530. yeast membranes, quenched prenylated peptide cleavage fluorescence. calls only. 0.27% of 290,000 active;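 active = fall in fluorescence gain of 50% or more versus controls, with final raw signal at or below 3038400; inconclusive = same 50% fall but final raw signal above 3038400; inactive = fall in fluorescence gain under 50%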;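 also: plate controls were neutral control wells for no effect and wells lacking membranes for full effect; tested at 10 µM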
Target sequence (Q03530 whole entry, looked up): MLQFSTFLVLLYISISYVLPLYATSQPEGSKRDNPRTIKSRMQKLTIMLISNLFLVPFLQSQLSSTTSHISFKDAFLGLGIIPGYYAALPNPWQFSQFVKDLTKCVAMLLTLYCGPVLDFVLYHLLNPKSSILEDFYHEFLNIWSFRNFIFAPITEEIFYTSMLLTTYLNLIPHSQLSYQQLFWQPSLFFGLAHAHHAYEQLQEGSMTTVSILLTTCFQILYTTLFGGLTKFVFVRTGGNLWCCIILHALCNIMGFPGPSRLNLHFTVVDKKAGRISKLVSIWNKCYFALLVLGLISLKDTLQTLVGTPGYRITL
UUG fidelity: alters start codon recognition fidelity in yeast | activity score, % at 18.7 µM | S. cerevisiae UUG-firefly luciferase reporter, luminescence/redox ratio | 0.13% of 350,000 active;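 active = replicate mean at a twofold rise or more, about +100% in these data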;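 also: firefly luciferase made from a UUG start codon reports start codon fidelity; reporter light over untreated wells divided by growth signal over untreated wells; some hits fall short of that in this replicate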
CSC inhib: cancer stem cell inhibition | cancer stem cell-like cells viability, luminescence | inhibition, % at 7.5 µM | 1.1% of 300,000 active;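 active = mean at 75% or more and at least half the replicates too; inconclusive = mean and replicates disagree; tested in HMLE shEcad cells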;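 also: 0% = median of negative and 100% = median of positive control wells; the first replicate is given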
eIF4H FP inh: inhibitors of RNA binding by human eIF4H; inhibition, % at 35 µM; Q15056; eIF4H fluorescence polarization binding assay; 0.94% of 290,000 active; AID 2012;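 active = 50% or more with normal probe brightness, or confirmed in later tests; inconclusive = above 50% with abnormal brightness, or retests that disagree; inactive = below 50% or failed in later tests; about a fifth of its hits are not listed in these tables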;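 also: calls also rest on retests at 20 µM and on dose response follow-up; 0% = protein and probe with vehicle and 100% = probe without protein; strong numbers were not always called active; many hits fall short of the cut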
PABP FP inh: PABP-poly(A) binding inhibition. P11940. PABP-poly(A) RNA binding, fluorescence polarization. inhibition, % at 35 µM. 1% of 290,000 active. AID 2014;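 active = 50% or more with normal probe brightness, or confirmed in later tests; inconclusive = above 50% with abnormal brightness, or retests that disagree; inactive = below 50% or failed in later tests; about a fifth of its hits are not listed in these tables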;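 also: calls also rest on retests at 20 µM and on dose response follow-up; controls were probe without protein and protein plus probe with vehicle; some compounds called inactive have numbers as strong as hits; many hits fall short of the cut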
Target sequence (P11940 whole entry, looked up): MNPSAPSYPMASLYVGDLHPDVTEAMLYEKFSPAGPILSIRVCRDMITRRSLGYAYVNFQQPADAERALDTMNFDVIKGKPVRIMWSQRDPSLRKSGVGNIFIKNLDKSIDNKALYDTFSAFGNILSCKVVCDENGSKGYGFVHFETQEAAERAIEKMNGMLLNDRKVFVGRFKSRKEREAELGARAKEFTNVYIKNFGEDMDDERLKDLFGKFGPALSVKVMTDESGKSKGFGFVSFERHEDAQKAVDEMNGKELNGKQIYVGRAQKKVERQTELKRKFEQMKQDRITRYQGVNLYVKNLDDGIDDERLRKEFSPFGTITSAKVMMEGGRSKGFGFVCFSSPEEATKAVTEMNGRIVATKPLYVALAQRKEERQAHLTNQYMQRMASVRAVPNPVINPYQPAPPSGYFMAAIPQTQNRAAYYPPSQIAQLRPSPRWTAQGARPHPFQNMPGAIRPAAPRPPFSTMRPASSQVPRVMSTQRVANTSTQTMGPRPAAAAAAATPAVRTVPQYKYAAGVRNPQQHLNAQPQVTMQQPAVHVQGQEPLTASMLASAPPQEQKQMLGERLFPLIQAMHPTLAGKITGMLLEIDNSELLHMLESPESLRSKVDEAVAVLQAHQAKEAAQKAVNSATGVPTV
Env fusion inh: blocks HIV Env-driven cell-cell fusion | 1.1% of 360,000 active | HeLa-JRFL Env/CEM21 cell fusion, luciferase | inhibition, % at 12.3 µM | AID 651610;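 active = mean replicate inhibition score of at least 50 and every replicate individually at or above 50; inconclusive = only one of the two criteria met; inactive = mean below 50 and not all replicates reaching 50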;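 also: 0% = plate neutral controls and 100% = maraviroc near 300 nM; one replicate is shown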
MT1-MMP act inh: blocks activation of human MT1-MMP; 0.061% of 360,000 active; P50281; HT1080 RFP-PRO-GFP cells, GFP/RFP ratio fluorescence, overnight; percent of plate control window, DMSO zero; AID 651647; GFP/RFP ratio change, % at 20 µM;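 active = GFP/RFP ratio change of at least 30% with cell ATP level not reduced by more than half and red fluorescence within 50% of control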; also: strong numbers were not always called active
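Assay system: HT1080 RFP-PRO-GFP cells. Benchmarks: DMSO vehicle wells and RFP-L50D-GFP reporter cell wells. Times: overnight cell settling, then overnight compound exposure, 37 °C, 5% CO2. Compound: 20 µM single dose, 1% DMSO. Read-out basis: GFP/RFP fluorescence ratio.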
eIF4H FP inh retest: further read-out of eIF4H FP inh, marked with its call; inhibition, %; compound at 20 µM; confirmation average;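 mean of two retest wells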
PABP FP inh retest: recorded beside PABP FP inh, whose call it bears; inhibition, %; compound at 20 µM; confirmation repeats;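 mean of two retest wells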
MT1-MMP act inh RFP: recorded beside MT1-MMP act inh, whose call it bears; RFP signal change, %; measured here: RFP expression control read;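 0 = vehicle wells; hits needed this value within 50% of zero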
Active calls of the source: *; i = inactive; u = inconclusive; x = not tested or not shown; & = joins results of further samples.

SMILES	Rce1 inhib	UUG fidelity	CSC inhib	eIF4H FP inh	PABP FP inh	Env fusion inh	MT1-MMP act inh	MT1-MMP act inh RFP	others
CN(C)S(=O)(=O)c1cccc(NC(=S)Nc2cccc3cnccc23)c1	i	x	x	52	49	45	1	-15	eIF4H FP inh retest=16;PABP FP inh retest=40
Cc1ccccc1N1C(=O)C(Cc2ccc(F)cc2)S/C1=C(\C#N)C(N)=O (configuration not stated)	i	11	-2	-6	12	14	-121	-2
CC(=O)N1CCN(c2ccc(NC(=O)C(c3ccccc3)c3ccccc3)cc2)CC1	i	-20	-2	4	2	-8	-1	-1
COc1cc(/C=N/Nc2nn3cnnc3c3ccccc23)ccc1O	i	-18	12	3	9	-39	1	0
Cc1cccc2cc(CN(Cc3nnnn3C3CCCCC3)C3CCCC3)c3nnnn3c12	i	-25	7	-2	5	25	-7	-10
CN(C)NC(=S)Nc1ccc(Cl)cc1	x	-45	-1	-6	-4	x	0	-2
Cc1nc(NC(=O)/C=C/c2ccccc2)sc1C(=O)Nc1ccccc1Cl	i	-15	-7	2	1	-40	8	3
O=C(CN1C(=O)NC2(CCCCC2)C1=O)Nc1cc(C(F)(F)F)ccc1N1CCCC1	x	16	x	x	x	-30	5	2
O=C1OC2(CCCCC2)OC(=O)C1=CNc1nccs1	i	-9	2	8	20	x	9	7
COc1cccc(CSc2nc3ccncc3[nH]2)c1	i	-48	33	-8	-7	-21	1	-1
Cc1ccc(S(=O)(=O)N2CCC(C(=O)OCC(=O)Nc3cc(S(C)(=O)=O)ccc3Cl)CC2)cc1C	i	24	-24	1	-13	-49	1	6
CCOc1cc(/C=N/NC(=O)C(=O)NC2CC2)cc(Br)c1O	i	-15	x	-13	-1	-12	0	0
C/C(Cn1nc([N+](=O)[O-])cc1C)=N\NC(=O)c1ccc(C(C)(C)C)cc1	i	-12	11	-2	6	-87	2	5
COCc1cc(C)nc(NCCO)c1C#N	i	-19	1	-5	6	-6	1	0
O=C(NCCC(=O)N1CCCC(C(F)(F)F)C1)c1ccc(Br)cc1 (configuration not stated)	i	6	-4	3	13	-1	3	3
CCOc1ccc(/C=N/Nc2ccccn2)cc1OC	i	x	8	-8	-14	-67	6	5
CCOc1ccc(CN2CCNC(=O)C2CC(=O)NCc2csc(C)n2)cc1 (configuration not stated)	i	-1	-6	8	10	-5	-4	1
COc1ccc(NC(=O)c2ccc(=O)[nH]c2)cc1S(=O)(=O)N1CCCCC1	i	x	4	-11	10	-4	x	x
COc1ccc(C(=O)N2CCCC(N3CCN(c4ccccc4F)CC3)C2)c(OC)n1 (configuration not stated)	i	-22	-9	0	-1	-1	1	-3
CCOc1ccc(C(=O)CC(Sc2ccc(C)cc2)C(=O)O)cc1 (configuration not stated)	i	-25	4	5	13	-10	-3	3
CCCCNC(=O)Nc1nc2ccc(CC)cc2s1	i	x	55	-4	-11	-9	-2	-7
Cc1c([C@@H]2C[C@H]3CN(Cc4cccc(Cl)c4)C(=O)[C@]34CCCN24)cnn1C	i	x	-14	61	47	4	-10	2	eIF4H FP inh retest=5;PABP FP inh retest=9
CCOc1cc(N2CCOCC2)c(OCC)cc1NC(=O)COc1ncnc2ccc(Br)cc12	i	-21	9	-12	-3	x	4	-5
C=CCn1c(C)csc1=Nc1ccc(C(=O)O)cc1	i	-6	-8	-17	1	-2	-2	3
CCN(CC)CCN1C(=O)C(=O)/C(=C(/O)c2c(C)[nH]c(C(=O)OC)c2C)C1c1cccc(OC)c1 (configuration not stated)	i	-16	x	-9	-7	-48	-4	0
CCS(=O)(=O)N1Cc2ccccc2CC1C(=O)NCC12CC3CC(CC(C3)C1)C2 (configuration not stated)	i	0	-6	4	-2	86*	1	-1
O=C(CN1C(=O)C(=O)N(Cc2ccco2)C1=O)Nc1ccccc1	x	-11	14	x	x	-21	-4	4
O=C(CN1CCN(Cc2ccc3c(c2)OCO3)CC1)Nc1ccc2c(c1)OCCO2	i	-9	x	-7	-12	x	3	-1
c1csc(-c2nc3ccccc3[nH]2)c1	x	1	3	-1	-3	x	3	0
COc1ccc(CCNC(=O)c2cc(C(=O)c3cc(C)ccc3O)cn(CCc3ccc(OC)cc3)c2=O)cc1	i	x	43	-8	14	18	-4	-13
COCCn1c(=O)c2ccccc2c2ccccc2c1=O	i	x	-11	0	-3	16	-2	3
Cc1cc(C(=O)CSc2nnc3c(Cl)cc(Cl)cn23)c(C)n1C	i	-13	-7	15	11	x	2	3
CC(C)(C)OC(=O)NCCCC[C@@H](C(=O)N1CCN(C(=O)OC(C)(C)C)CC1)n1cc(CCC(=O)O)nn1	i	9	-6	-3	-2	-12	2	1
Cc1ccc(C(=O)N2CCCC(C(F)(F)F)C2)cc1S(=O)(=O)N1CCOCC1 (configuration not stated)	x	-14	-4	x	x	2	-3	0
O=C(Nc1cccc(C(F)(F)F)c1)c1csc([C@@H]2C[C@H](O)[C@@H](CO)O2)n1	x	6	x	x	x	11	2	-2
CCOC(=O)c1ccc(N2CCOCC2)c(NC(=O)c2nccnc2C(=O)O)c1	i	-10	-2	-6	2	8	-2	3
CSc1nnc(-c2cnccn2)n1C	i	-10	-15	-10	u	x	2	2
Cc1cccc(-c2nc(CS(=O)CC(=O)N3CC(C)CC(C)C3)c(C)o2)c1 (configuration not stated)	i	x	-20	-6	-4	1	0	-2
Cc1nnc(SCC(=O)c2ccc(Br)cc2)s1	i	x	-1	-1	-14	5	-2	3
O=[N+]([O-])/C=C/c1cn(Cc2ccccc2)c2ccccc12	i	x	65	4	7	x	-9	-6
Cc1ccc(C(=O)Nc2nnc([C@H]3C[C@H](O)[C@@H](CO)O3)s2)cc1	x	4	x	x	x	-20	0	-1
O=C(O)C1=C[C@H](c2cccs2)C[C@H](OCc2ccc(CO)cc2)O1	i	-12	x	-2	8	-49	-1	3
COc1ccc(/C=C2\C(=O)OCc3cc(OC)c(OC)cc32)cc1OC	i	3	-8	9	0	1	-1	2
COc1ccc(N(C)S(=O)(=O)c2cccc(C(=O)N3CCN(S(=O)(=O)c4ccc(C)cc4)CC3)c2)cc1	i	4	-16	-11	-4	-3	-5	-19
Cc1ccc(S(=O)(=O)c2cnc3cc(C)nn3c2N)cc1	i	x	2	-2	-7	4	0	5

Filtered by structure, those above with a Cl atom
SMILES	Rce1 inhib	UUG fidelity	CSC inhib	eIF4H FP inh	PABP FP inh	Env fusion inh	MT1-MMP act inh	MT1-MMP act inh RFP	others
CN(C)NC(=S)Nc1ccc(Cl)cc1	x	-45	-1	-6	-4	x	0	-2
Cc1nc(NC(=O)/C=C/c2ccccc2)sc1C(=O)Nc1ccccc1Cl	i	-15	-7	2	1	-40	8	3
Cc1ccc(S(=O)(=O)N2CCC(C(=O)OCC(=O)Nc3cc(S(C)(=O)=O)ccc3Cl)CC2)cc1C	i	24	-24	1	-13	-49	1	6
Cc1c([C@@H]2C[C@H]3CN(Cc4cccc(Cl)c4)C(=O)[C@]34CCCN24)cnn1C	i	x	-14	61	47	4	-10	2	eIF4H FP inh retest=5;PABP FP inh retest=9
Cc1cc(C(=O)CSc2nnc3c(Cl)cc(Cl)cn23)c(C)n1C	i	-13	-7	15	11	x	2	3

Other compounds follow:
SMILES	Rce1 inhib	UUG fidelity	CSC inhib	eIF4H FP inh	PABP FP inh	Env fusion inh	MT1-MMP act inh	MT1-MMP act inh RFP	others
COc1cc(OC)cc(C(=O)NCCS(=O)(=O)N2CCN(Cc3ccccc3)CC2)c1	i	-22	x	x	x	-12	1	3
CCOc1ccc(CNC(=O)CCCn2nc(C)c3c(C)n(-c4ccc(C)cc4)nc3c2=O)cc1	i	-14	-7	-11	-5	8	2	0
CCOC(=O)N1CCC(NCCNC(=O)c2ccccc2)CC1	i	-11&-14	-14&-4	1	6	-17&-26	2&-3	7&1
COc1ccc(OC(=O)c2cccc([N+](=O)[O-])c2)c(C(=O)/C=C/c2cccs2)c1	i	-9	-6	-8	-5	x	-2	0
Cc1cc(NC(=O)CN2C(=O)NC(CC(C)C)C2=O)ccc1Br (configuration not stated)	x	-1	3	x	x	11	9	3
NC(=O)c1ccc2c(c1)OCCO2	i	-8	x	-4	-8	x	-2	4
CCCCCC(=O)Nc1cccc(C2=NOC3(C2)C[C@H](C(N)=O)N(C(=O)c2ccccc2)C3)c1 (some centres not stated)	i	2	-24	-10	10	-1	2	6
CCCC(C(=O)NCc1ccco1)N(C(=O)CNS(=O)(=O)c1ccccc1)c1ccccc1OC (configuration not stated)	i	-9	17	2	6	x	-4	-4
O=C(NCc1ccc(Cl)cc1)C1CCN(S(=O)(=O)c2ccc(N3CCCC3=O)cc2)CC1	i	-20	-11	-10	-5	6	-3	-23
NC(=O)C1CCN(c2nc(-c3cccs3)cs2)CC1	x	-19	7	x	x	x	2	-3
CC1(C(=O)NCCc2c[nH]c3ccccc23)CCN1Cc1csc2ccccc12 (configuration not stated)	x	10	x	x	x	-2	-4	-1
C/C(=C\C(=O)C(F)(F)F)Nc1ccc(C)cc1	i	x	-17	-3	26	-8	1	3
CC(=O)c1cccc(NC(=O)COc2ccc3oc(=O)cc(C)c3c2)c1	i	-27	3	-9	-5	x	0	-7
COCCNC(=O)c1cccc(OC2CCN(Cc3cccc(SC)c3)CC2)c1	i	-3	0	1	-2	7	1	-1
Cc1[nH]nc2c1C(=O)CCC2	i	-11	2	13	-5	x	3	7

Fetched by structure from above (3):
SMILES	Rce1 inhib	UUG fidelity	CSC inhib	eIF4H FP inh	PABP FP inh	Env fusion inh	MT1-MMP act inh	MT1-MMP act inh RFP	others
CC1(C(=O)NCCc2c[nH]c3ccccc23)CCN1Cc1csc2ccccc12 (configuration not stated)	x	10	x	x	x	-2	-4	-1
CC(=O)c1cccc(NC(=O)COc2ccc3oc(=O)cc(C)c3c2)c1	i	-27	3	-9	-5	x	0	-7
COc1cc(OC)cc(C(=O)NCCS(=O)(=O)N2CCN(Cc3ccccc3)CC2)c1	i	-22	x	x	x	-12	1	3
